M1AAP inhibition: P. falciparum M1AAP inhibitors, biochemical, fluorogenic H-Leu-NHMec substrate, 1536-well (AID 1445); recombinant M1AAP, H-Leu-NHMec fluorogenic kinetic assay; higher % means a stronger effect; inhibition, % at 30 µM; hits with a dose series show IC50 in µM; 220,000 compounds, 0.42% hits;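 active means primary inhibition above the hit cutoff, then over 50% inhibition at one or more dose response concentrations, cut at about 23% in these data, passing the limit was not always enough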;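 further: plate controls were DMSO full reaction for no effect and no enzyme background for full effect; strong numbers were not always called active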
AID2073: inhibitors of Mint1-CaV2.2 protein interaction, biochemical, HTRF (AID 2073); HTRF protein-protein interaction, Mint1-CaV2.2; higher % means a stronger effect; inhibition, % at 20 µM; hits with a dose series show IC50 in µM; 290,000 compounds, 0.19% hits; in the data active means inhibition mostly above about 51%, no sharp cut-off; further: some results filed as inactive read as strong as hits
GPR55 activation: GPR55 agonists via beta-arrestin recruitment, primary screen, imaging, U2OS cells, beta-arrestin-GFP redistribution (AID 1961); 290,000 compounds, 0.048% hits; one-dose activation, % at 10 µM; EC50 in µM for titrated hits; U2OS GPR55 beta-arrestin-GFP redistribution imaging; higher % means a stronger effect;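 active means activation above 40% with more than 50 cells counted in the well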;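 further: U2OS osteosarcoma cells stably expressing GPR55 and beta-arrestin-GFP; plate controls were DMSO negative control for no effect and LPI positive control for full effect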
Dynein transport: dynein cargo transport inhibition. AID 1381. 3617.4 mouse cells, GR-EGFP nuclear translocation imaging; test concentration mostly 20 µM; stimulated with dexamethasone, 1 µM; stronger effect = lower value. z-score, hits read low. 220,000 compounds, 0.47% hits;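 active means plate z-score of nuclear minus cytoplasmic receptor signal below a set negative limit, without overly bright fluorescence or cell loss, cut at about -3.5 in these data, passing the limit was not always enough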;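 further: z-score of nuclear minus cytoplasmic ring GR-EGFP intensity difference per well; some compounds called inactive have numbers as strong as hits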
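Buffer or medium: tet-free, stripped-serum medium; Also added: dexamethasone, 1.0 µM final; Technique: high-content fluorescence imaging after fixation; Times: 48 h induction, 1 h compound, 30 min dex at 37 °C; Read-out: per-cell GR-EGFP intensity, nucleus versus surrounding cytoplasmic ring, well-averaged.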
P. falciparum M17LAP: P. falciparum M17LAP inhibitors, primary screen, biochemical, fluorogenic H-Leu-NHMec substrate, 1536-well (AID 1619). 220,000 compounds, 0.38% hits. one-dose inhibition, % at 30 µM; IC50 in µM for titrated hits. recombinant M17LAP, H-Leu-NHMec fluorogenic kinetic assay; higher % means a stronger effect;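 active means compound inhibiting the enzyme by more than half at any dose during confirmatory dose-response retesting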;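 further: plate controls were full reaction with DMSO carrier for no effect and no enzyme background for full effect; strong numbers were not always called active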
KOR beta-arrestin: kappa opioid receptor activators – cell-based, luminescence, uHTS, primary screen (AID 1777). one-dose activation, % at 10 µM; EC50 in µM for titrated hits. KOR beta-arrestin recruitment, luminescence; higher % means a stronger effect. 280,000 compounds, 0.02% hits; in the data active means activation above about 50%, passing the limit was not always enough; further: a part of the inactive calls stands beside numbers as strong as those of hits
Dynein transport cytoplasmic EGFP: further read-out of Dynein transport, marked with its call; z-score; measured here: cytoplasmic GR-EGFP intensity; stronger effect = higher value
Dynein transport nuclear GR-EGFP: further read-out of Dynein transport, marked with its call; z-score; measured here: nuclear GR-EGFP intensity;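 lower value marks the stronger effect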
Dynein transport cell count: second read-out of Dynein transport, no call of its own (marks repeat the call); z-score; measured here: cell count per field
Starred values were filed as active, the others as inactive.

(1) CCSc1ncccc1-c1nc2ccccc2[nH]1
(2) O=c1[nH]c(=O)n(CCOc2ccc(Cl)cc2)cc1Br
(3) O=c1ncn(-c2ccccc2F)c2ncccc12
(4) C/C(=C1/SC(N2CCCC2)=NC1=O)c1ccc(Br)cc1
(5) CC(=O)Nc1cccc(NC(=O)c2cc(-c3cccnc3)nc3ccc(Br)cc23)c1
(6) COC(=O)c1cc(OC)c(OC)cc1NC(=S)Nc1cccc(Cl)c1

compound no. | 1 | 2 | 3 | 4 | 5 | 6
M1AAP inhibition | 5% | 4% | -4% | 3% | 5% | 7%
AID2073 | 6% | 13% | -9% | -1% | 16% | -52%
GPR55 activation | -0.3% | 0.1% | -0.1% | 0.0% | 0.3% | -0.1%
Dynein transport | -0.87 | -0.24 | -0.44 | -0.97 | -0.61 | 0.21
Dynein transport cytoplasmic EGFP | -0.25 | -0.12 | -0.19 | -0.33 | -0.14 | -0.031
Dynein transport nuclear GR-EGFP | -0.27 | 0.24 | 0.15 | -0.13 | -0.43 | -0.0028
Dynein transport cell count | 0.99 | -1.6 | 0.2 | 0.87 | 0.52 | -1.2
P. falciparum M17LAP | 7% | 0% | -2% | 7% | 4% | -18%
KOR beta-arrestin | -1.8% | 3.7% | 3.1% | -0.9% | 6.8% | -0.5%

(7) Cc1cc(C)cc(CSCC(=O)N/N=C/c2ccc(OCC(=O)NCc3ccco3)cc2)c1
(8) CCOC(=O)CSc1nc2ccccc2c(=O)n1CC1CCC(C(=O)NCc2ccco2)CC1 (stereo unspecified)
(9) CCOc1ccc(/C(O)=C2/C(=O)C(=O)N(CC3CCCO3)C2c2ccc(C)o2)cc1 (stereo unspecified)
(10) CC(C)(C)C1CCC2(CC1)C(C#N)=C(SCC(=O)Nc1ccccc1)NC(=O)C2C#N (stereo unspecified)
(11) Cc1ccc(Cn2c(SCC(=O)NCC3CCCO3)nc3c(sc4ccccc43)c2=O)cc1 (stereo unspecified)
(12) O=S(=O)(c1ccc(Cl)cc1)n1nnc2ccccc21

compound no. | 7 | 8 | 9 | 10 | 11 | 12
M1AAP inhibition | 4% | -2% | 8% | 9% | 4% | 0%
AID2073 | 13% | 12% | -21% | -12% | 0% | -4%
GPR55 activation | 0.5% | -2.3% | 0.3% | -0.1% | -0.1% | 0.2%
Dynein transport | 0.058 | -0.88 | 1.1 | -1.3 | 1.1 | -0.58
Dynein transport cytoplasmic EGFP | -0.17 | -0.19 | 0.42 | -0.16 | -0.3 | -0.15
Dynein transport nuclear GR-EGFP | -0.24 | -0.46 | 0.61 | -0.11 | 0.49 | -1
Dynein transport cell count | -0.87 | 0.69 | -1.3 | 0.17 | 0.059 | -0.11
P. falciparum M17LAP | 5% | -10% | 34% | 2% | -6% | 56%
KOR beta-arrestin | 1.1% | 5.3% | 0.1% | 9.2% | -6.7% | 3.4%

(13) COc1ccc(C(CC(=O)Nc2ccc(F)cc2)c2ccccc2)cc1 (stereo unspecified)
(14) O=C(NCc1ccc2c(c1)OCO2)c1cc(-c2ccc(Cl)cc2Cl)on1
(15) O=[N+]([O-])c1ccccc1OCCCN1CCOCC1
(16) CCC(=O)N(c1ccc(F)cc1)C1C=CS(=O)(=O)C1 (stereo unspecified)
(17) COCCNC(=O)C1CCN(S(=O)(=O)N2CCC3(CC2)OCCO3)CC1
(18) COc1ccc(N2CCN(c3oc(Cc4cccc5ccccc45)nc3C#N)CC2)cc1

compound no. | 13 | 14 | 15 | 16 | 17 | 18
M1AAP inhibition | 11% | 2% | -6% | 8% | -1% | 2%
AID2073 | 16% | 13% | -1% | 24% | 23% | 26%
GPR55 activation | -0.1% | -0.1% | 0.0% | 0.2% | -2.3% | 0.2%
Dynein transport | -0.71 | -0.58 | -0.46 | 2.7 | 0.055 | 0.92
Dynein transport cytoplasmic EGFP | -0.18 | -0.21 | -0.19 | -0.04 | -0.23 | 0.029
Dynein transport nuclear GR-EGFP | -0.75 | -0.92 | -0.34 | 1.5 | 0.042 | 0.95
Dynein transport cell count | 0.29 | 0.28 | 0.54 | -1.8 | 0.37 | -1.3
P. falciparum M17LAP | -1% | -3% | 15% | 4% | 0% | -5%
KOR beta-arrestin | 7.0% | 12% | 3.7% | 16% | 3.2% | 21%

A different layout for some results above:
| item | mol | M1AAP inhibition | AID2073 | GPR55 activation | Dynein transport | Dynein transport cytoplasmic EGFP | Dynein transport nuclear GR-EGFP | Dynein transport cell count | P. falciparum M17LAP | KOR beta-arrestin |
| --- | --- | --- | --- | --- | --- | --- | --- | --- | --- | --- |
| 8 | CCOC(=O)CSc1nc2ccccc2c(=O)n1CC1CCC(C(=O)NCc2ccco2)CC1 (stereo unspecified) | -2% | 12% | -2.3% | -0.88 | -0.19 | -0.46 | 0.69 | -10% | 5.3% |
| 9 | CCOc1ccc(/C(O)=C2/C(=O)C(=O)N(CC3CCCO3)C2c2ccc(C)o2)cc1 (stereo unspecified) | 8% | -21% | 0.3% | 1.1 | 0.42 | 0.61 | -1.3 | 34% | 0.1% |
| 10 | CC(C)(C)C1CCC2(CC1)C(C#N)=C(SCC(=O)Nc1ccccc1)NC(=O)C2C#N (stereo unspecified) | 9% | -12% | -0.1% | -1.3 | -0.16 | -0.11 | 0.17 | 2% | 9.2% |
| 11 | Cc1ccc(Cn2c(SCC(=O)NCC3CCCO3)nc3c(sc4ccccc43)c2=O)cc1 (stereo unspecified) | 4% | 0% | -0.1% | 1.1 | -0.3 | 0.49 | 0.059 | -6% | -6.7% |
| 12 | O=S(=O)(c1ccc(Cl)cc1)n1nnc2ccccc21 | 0% | -4% | 0.2% | -0.58 | -0.15 | -1 | -0.11 | 56% | 3.4% |
| 13 | COc1ccc(C(CC(=O)Nc2ccc(F)cc2)c2ccccc2)cc1 (stereo unspecified) | 11% | 16% | -0.1% | -0.71 | -0.18 | -0.75 | 0.29 | -1% | 7.0% |
| 14 | O=C(NCc1ccc2c(c1)OCO2)c1cc(-c2ccc(Cl)cc2Cl)on1 | 2% | 13% | -0.1% | -0.58 | -0.21 | -0.92 | 0.28 | -3% | 12% |
| 15 | O=[N+]([O-])c1ccccc1OCCCN1CCOCC1 | -6% | -1% | 0.0% | -0.46 | -0.19 | -0.34 | 0.54 | 15% | 3.7% |
| 16 | CCC(=O)N(c1ccc(F)cc1)C1C=CS(=O)(=O)C1 (stereo unspecified) | 8% | 24% | 0.2% | 2.7 | -0.04 | 1.5 | -1.8 | 4% | 16% |

New compounds follow.
(19) Cc1c(C)c2ccc(Oc3ccc([N+](=O)[O-])cc3C(F)(F)F)c(C)c2oc1=O
(20) O=C(COc1ccc(F)cc1)Nc1nnc(-c2ccncc2)s1
(21) CCn1c(SCC(=O)OC)nc2sc3c(c2c1=O)CCC3
(22) CCc1ccc(N(C(=O)c2snc(C(N)=O)c2N)C(C(=O)NCCC(C)C)c2c[nH]c3ccccc23)cc1 (stereo unspecified)
(23) CCCCC1S/C(=N/N=C/c2ccc(OC)cc2)N(Cc2ccc(OC)cc2)C1=O (stereo unspecified)
(24) O=C(CN(c1ccccc1)S(=O)(=O)c1ccccc1)NCCSc1nc2ccccc2s1

compound no. | 19 | 20 | 21 | 22 | 23 | 24
M1AAP inhibition | 7% | 4% | 3% | 1% | 10% | 4%
AID2073 | 0% | 6% | 9% | 26% | -3% | -4%
GPR55 activation | -0.1% | -0.1% | -0.1% | -0.1% | -0.1% | -0.1%
Dynein transport | -0.015 | -0.42 | -1.2 | 2.4 | -0.34 | -0.53
Dynein transport cytoplasmic EGFP | -0.3 | -0.18 | -0.19 | 0.25 | -0.095 | -0.21
Dynein transport nuclear GR-EGFP | -0.002 | -0.89 | -0.28 | 1.7 | 0.13 | 0.34
Dynein transport cell count | -0.41 | 1 | -0.036 | -2.3 | -0.8 | 0.55
P. falciparum M17LAP | -2% | 2% | -9% | 7% | 4% | -11%
KOR beta-arrestin | -1.4% | 1.6% | 2.3% | 12% | -0.3% | -0.2%

(25) O=C(CSc1n[nH]c(-c2cccs2)n1)N1CCCc2ccccc21
(26) O=C(CCSCCc1ccncc1)NCCCN1CCOCC1
(27) CCOc1ccc(NC(=O)N2CCC(C(=O)c3ccc(F)cc3)CC2)cc1
(28) O=C(c1ccccc1)c1c[nH]c(C(=O)NCCCn2ccnc2)c1
(29) COc1ccc(-c2cn3c(C)c(C(=O)NC(C)C)sc3n2)cc1
(30) CCS(=O)(=O)c1ccc2c(c1)N(S(=O)(=O)c1ccc(OC)cc1)CC(C(=O)O)O2 (stereo unspecified)

compound no. | 25 | 26 | 27 | 28 | 29 | 30
M1AAP inhibition | 1% | -12% | 2% | 5% | 6% | 2%
AID2073 | 0% | -2% | -9% | -4% | -38% | 47%
GPR55 activation | -0.1% | -0.2% | -0.1% | -0.1% | 0.7% | -0.2%
Dynein transport | -0.41 | -1.1 | -0.88 | 0.35 | -0.52 | 2.1
Dynein transport cytoplasmic EGFP | -0.2 | -0.19 | -0.23 | -0.17 | -0.21 | -0.091
Dynein transport nuclear GR-EGFP | 0.51 | -0.28 | -1.1 | 0.71 | -0.18 | 1.1
Dynein transport cell count | 0.064 | 0.14 | 0.98 | 0.44 | 0.68 | -3.7
P. falciparum M17LAP | 1% | -2% | 20% | 4% | -10% | -6%
KOR beta-arrestin | -0.2% | -5.0% | 0.6% | 2.0% | 2.6% | -3.8%

(31) N#Cc1cc2c(nc1SCC(=O)O)CCCC2
(32) CC(=O)NC1CC2CCCC(C1)N2C(=O)Nc1ccccc1 (stereo unspecified)
(33) CN(C)c1ccc(CNc2ncc(Br)cc2Br)cc1
(34) CC(=O)N1CCc2cc(S(=O)(=O)CCC(=O)Nc3c(C)n(C)n(-c4ccccc4)c3=O)ccc21
(35) CS(=O)(=O)n1nc(-c2ccccc2)nc1N

compound no. | 31 | 32 | 33 | 34 | 35
M1AAP inhibition | 4% | 4% | -1% | -8% | 13%
AID2073 | -1% | 0% | -22% | -3% | -2%
GPR55 activation | 0.0% | 0.1% | 0.0% | -0.2% | 0.2%
Dynein transport | 0.22 | -0.5 | -0.39 | -0.89 | -0.015
Dynein transport cytoplasmic EGFP | -0.11 | -0.12 | -0.24 | -0.34 | 0.055
Dynein transport nuclear GR-EGFP | 0.47 | -0.95 | -0.83 | -0.27 | 0.71
Dynein transport cell count | -0.42 | -0.6 | 0.36 | 0.29 | 1
P. falciparum M17LAP | 16% | -1% | -6% | 3% | 17%
KOR beta-arrestin | 1.2% | 2.5% | -1.4% | -2.4% | -1.3%

An excerpt; rates above refer to the full screens.
